Screening results: PubChem BioAssay, ICCB-Longwood Screening Facility, Harvard Medical School
BasE inh = inhibitors of Acinetobacter baumannii siderophore enzyme BasE | purified BasE, fluorescence polarization binding displacement | inhibition, % (test concentration not listed) | 0.1% of 84,000 active;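 active means both replicates above 25% with normal brightness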;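 further: 0% = negative plate control signal and 100% = positive plate control signal; stock transfer was 100 nL into about 30 µL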
LANA-nucl inh = LANA-nucleosome interaction inhibition. FITC-LANA1-23 / chicken nucleosome fluorescence polarization; hits give low values. z-score (concentration not given with the values). 0.3% of 51,000 active. AID 720717;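 active means both repeat wells score below -2 in polarization z-score versus plate sample wells, excluding overly bright wells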;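 further: 100 nL library stock added to about 30 µL; numbers are from one replicate; some results filed as inactive read as strong as hits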
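Material: Purified chicken nucleosomes with FITC-labelled LANA N-terminal peptide (1-23) | Reagent: 50 nM FITC-LANA1-23 probe | Medium: TEN-BT buffer, pH 7.5 | Times: 10–45 min incubation at room temperature | Detection: Fluorescence polarization | Replication: Duplicates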
The depositor's hits bear a star; x = not tested or not shown. Some of the compounds tested. The share of hits here may be higher or lower than overall.

Preview, 2 compounds:
compound	BasE inh	LANA-nucl inh
CC(c1ccccc1)C1OCC(CN2CCCCC2)O1 (stereo unspecified)	1.4	-0.335
Cn1cnnc1SCC(=O)c1ccc(Cl)cc1	x	0.615

This part in full, repeating the preview:
compound	BasE inh	LANA-nucl inh
CC(c1ccccc1)C1OCC(CN2CCCCC2)O1 (stereo unspecified)	1.4	-0.335
Cn1cnnc1SCC(=O)c1ccc(Cl)cc1	x	0.615
CN(c1ccccc1)S(=O)(=O)c1cc2c3c(c1)CCC(=O)N3CCC2	4.3	0.06
Cc1ccc2nc(-c3ccc(C(F)(F)F)cc3)oc2c1	0.7	x
O=C(N/N=C/c1sc(N2CCCCC2)nc1-c1cccs1)c1ccccc1	-1.1	x
COc1ccc(-c2c(C)c3ccc(OC(=O)N4CCOCC4)cc3oc2=O)cc1	0.4	0.609
CN1CCN(C(=O)c2cn(-c3ccccc3)nc2-c2cccs2)CC1	-0.2	x
CC(=O)NCc1ccccc1	-0.2	x
CC(C)(C)Oc1ccc(CC(CO)NC(=O)OCC2c3ccccc3-c3ccccc32)cc1 (stereo unspecified)	2.2	x
O=C(O)CCN=C1CCc2ccccc2N1	0.6	1.2
CC1(C)Cc2cccc(OCC(=O)OCC(=O)c3ccc4[nH]c(=O)[nH]c4c3)c2O1	0.0	x
O=P(c1ccccc1)(c1ccccc1)C(O)c1ccc2c(c1)OCO2 (stereo unspecified)	-0.7	-0.225
COc1ccccc1NC(=O)c1ccc2c(c1)C(=O)N(CC1CCCO1)C2=O (stereo unspecified)	0.6	x
CCCCCCCCCCOc1cc2c(=O)c(C(=O)OCC)c[nH]c2cc1OCC	x	-0.3
COc1ccc(C(=O)N(CC#N)CC#N)cc1OC	1.2	1.05
CCOC(=O)c1ccc2ncc(C(=O)OCC)c(NCCCN3CCOCC3)c2c1	-4.2	0.193
Cc1c(S(=O)(=O)N2CCCC2c2ccc(F)cc2)cnn1-c1ccccc1 (stereo unspecified)	x	-1.26
O=C(/C=C/c1ccco1)OCC(=O)c1ccc(O)cc1O	5.1	x
O=C1CCCc2nccc(-c3ccccc3)c21	2.9	-0.531
CC1CCN(S(=O)(=O)N2CCCC(C(=O)O)C2)CC1 (stereo unspecified)	0.4	-0.237

Reprinted at random: three entries already listed, in no set order.
compound	BasE inh	LANA-nucl inh
O=P(c1ccccc1)(c1ccccc1)C(O)c1ccc2c(c1)OCO2 (stereo unspecified)	-0.7	-0.225
CC(C)(C)Oc1ccc(CC(CO)NC(=O)OCC2c3ccccc3-c3ccccc32)cc1 (stereo unspecified)	2.2	x
COc1ccc(-c2c(C)c3ccc(OC(=O)N4CCOCC4)cc3oc2=O)cc1	0.4	0.609

Next part
compound	BasE inh	LANA-nucl inh
CC(=C1C(=O)c2ccccc2C1=O)N1CCN(Cc2ccccc2)CC1	7.7	0.156
CC(CN1C(C)CCCC1C)OC(=O)c1ccc(Cl)cc1 (stereo unspecified)	-2.9	0.274
NC(=O)C1CCN(CC(=O)N2N=CCC2c2ccccc2)CC1 (stereo unspecified)	-0.5	-0.087
CCOCCC(=O)Nc1ccccc1C(F)(F)F	-3.7	1.47
O=C(CSc1ncc(C(F)(F)F)cc1Cl)N1CCNC1=O	0.2	x
COc1ccc(-c2csc3c(C#N)c(C)cc(=O)n23)cc1	-2.1	x
COc1ccccc1N1CCN(CC(=O)c2ccc(F)cc2)CC1	-3.3	-0.115
C=CCOc1c(-c2ccco2)oc2ccccc2c1=O	-1.4	0.0515
N#Cc1cccc(C(=O)Nc2ccc(S(=O)(=O)N3CCCCC3)cc2)c1	1.9	x
CSCc1c(C(=O)Nc2ccccc2N2CCOCC2)oc2ccccc12	2.1	x
O=C(OC1CCCC1)c1c(F)cccc1Cl	2.1	x
CC1CC(N)C(=O)O1 (stereo unspecified)	2.1	x
CCn1c(CSc2ccc(OC)cc2)nc2cc(S(=O)(=O)N3CCCCC3)ccc21	1.4	x
C/C=C/c1n(C)c2ccccc2[n+]1C	2.8	-0.068
COc1ccc(C(Nc2cc(C)ccn2)c2ccc3cccnc3c2O)cc1O (stereo unspecified)	2.6	-0.395
COc1ccc(C(=S)N2CCCCC2)cc1OC	0.4	x
COc1ccccc1Nc1nnc(SCC(=O)Nc2ccnn2C(C)C)s1	1.0	x
CCCCOc1ccc(C(=O)Nc2cccc(NC(=O)c3ccco3)c2)cc1	-0.1	-0.463
Fc1ccc(NCc2c[nH]c3ccccc23)cc1	3.2	0.862
COc1ccc(-c2nnc(SCc3ccc(C#N)cc3)n2CC(C)C)cc1	1.2	x
CC(C)C(=O)Nc1cc(-c2ccccc2)no1	0.4	0.433
CC1Cc2ccccc2N1Cc1ccc(-n2ccnc2)cc1 (stereo unspecified)	0.6	x
CN1C(=O)C(C)(C)Nc2ccccc21	-0.8	1.39
Cc1onc(-c2c(Cl)cccc2Cl)c1NC(=O)N1CCCC1=O	2.5	x
CN1C=C(C(F)(F)F)C=C/C1=C(/C#N)c1nnc2n1CCCCC2	-0.6	x
CCOC(=O)c1sc(NC(=O)CC)nc1C	-1.5	x
Cc1ccc(S(=O)(=O)N2CCN(S(=O)(=O)c3ccc(C)cc3)CC2)cc1	0.7	0.24
O=C1CC(c2ccccc2)CC(O)=C1C=NCc1ccccn1 (stereo unspecified)	-1.1	0.502
O=C(c1cc2sccc2n1Cc1ccccc1)N1CCCC1	0.0	-0.162
O=C(CSc1ncn[nH]1)Nc1ccccc1Cl	-0.7	-1.23
CCC(=O)c1c[nH]c(C(=O)NCc2cccs2)c1	x	-0.425
COc1cc(/C=N/NC(=S)NCc2ccco2)ccc1O	2.5	-0.592
COc1ccc(/C=N/S(=O)(=O)c2ccccc2)c(OC)c1	2.2	2.14
c1ccc(Nc2nc(Nc3ccccc3)nc(Sc3nc4ccccc4[nH]3)n2)cc1	1.3	x
O=C1c2ccccc2C(=Cc2cccs2)c2ccccc21	4.1	x
CC(C)N(C(C)C)S(=O)(=O)c1ccc(N2CCC(C(N)=O)CC2)nc1	0.8	x
CCOC(=O)N1CCc2c(sc(NC(=O)c3ccc(S(=O)(=O)N4CCOCC4)cc3)c2C(=O)N2CCOCC2)C1	-0.1	-0.762
O=C(CCn1cccc1)N1CCN(c2ccccc2)CC1	1.2	-1.32
CNS(=O)(=O)c1cc(C(=O)Nc2nnc(C3CC3)s2)ccc1Cl	-7.4	x
Cc1cc2nc3s/c(=C\c4ccc(-c5cccc(F)c5)o4)c(=O)n3c2cc1C	6.1	1.61
Cc1cc(C)c2c(C(C)(C)C)nn(-c3ccc(C(=O)O)cc3)c2n1	-10.2	2.09
Cc1cc(N2CCN(C)CC2)ccc1NC(=O)c1ccc2c(c1)NC(=O)C(C)S2 (stereo unspecified)	-5.2	x
CC1=CCC(C(=O)Nc2nc3ccccc3s2)C(C(=O)O)C1 (stereo unspecified)	0.4	0.617
COc1ccc(C(=O)CSc2nnc(Cc3cccs3)n2C2CC2)cc1	-1.5	x
COc1ccccc1C(=O)Nc1ccc(S(=O)(=O)NC2=NCCCCC2)cc1	-0.3	x
CS(=O)(=O)N(Cc1ccccc1)Cc1nc2ccccc2c(=O)[nH]1	3.1	-0.194
C/C(=N/O)c1[nH]c(C)c(/C(C)=N\O)c1C	-0.4	0.301
Cn1c(SCc2ccccc2)nnc1C1CCN(C(=O)NCc2ccccc2)CC1	-0.9	-0.997
COC(=O)c1ccc(Cl)cc1NC(=O)N1CCC(CN2CCOCC2)CC1	1.1	0.023
CCN(c1ccccc1)S(=O)(=O)c1cc2c(cc1C)n(C)c(=O)c(=O)n2C	-0.2	1.4
Cn1c(SCC(=O)O)nc2ccccc21	-1.7	2.57
CCCCC1(CO)C(=O)N(c2ccccc2)N(c2ccccc2)C1=O	0.9	x
CCOc1ccc(OCCOC(=O)c2ccc(O)cc2)cc1	4.1	x
CCN(CC)/C(=N/OCc1ccc(Cl)cc1Cl)c1nonc1N	0.1	0.481
Brc1cccc(-c2n[nH]c(-c3ccccc3)n2)c1	0.5	-0.077
Cc1cc(C)n(C2=NCCN2C=C(C#N)C#N)n1	4.7	0.199
CCSc1nc(C)c(C)c(C)c1C#N	-0.4	x
CCOc1ccc(N2CC(C(=O)Nc3ccccc3C(=O)N3CCOCC3)CC2=O)cc1 (stereo unspecified)	x	-0.0295
O=C(c1cncc(NS(=O)(=O)c2ccc(Cl)cc2)c1)N1CCc2ccccc21	0.1	-0.777
CC(c1ccccc1)n1c(OC(=O)N(C)C)nnc1SCC(=O)c1ccc2c(c1)OCCO2 (stereo unspecified)	0.4	x

One compound at a time, from the list above:
`Cn1c(SCC(=O)O)nc2ccccc21` reads BasE inh: -1.7; LANA-nucl inh: 2.57
`Cc1cc(C)n(C2=NCCN2C=C(C#N)C#N)n1` reads BasE inh: 4.7; LANA-nucl inh: 0.199
`O=C(c1cncc(NS(=O)(=O)c2ccc(Cl)cc2)c1)N1CCc2ccccc21` reads BasE inh: 0.1; LANA-nucl inh: -0.777

Other compounds
compound	BasE inh	LANA-nucl inh
CCn1nc(C)c(Br)c1-c1nc(CS(=O)(=O)c2ccc(F)cc2)no1	0.9	0.495
O=S1(=O)CCC(NC2CCCCC2)C1 (stereo unspecified)	0.1	-0.54
O=S1(=O)C=C(Sc2nnnn2-c2ccccc2)c2ccccc21	1.9	-0.0615
CC(C)(C)N1CC(COc2ccccc2)OC1=O (stereo unspecified)	0.9	-0.669
O=C1c2ccccc2C(=O)N1CCOc1ccccc1	1.5	-1.33
Cc1cccc(N2CCN(CC(=O)N(C)Cc3ccccc3)CC2C)c1 (stereo unspecified)	3.1	x
CCC(NC(=O)NC1CCCCC1)c1ccccc1 (stereo unspecified)	-2.2	1.17
O=C(c1ccc(-n2nc(C(F)(F)F)c3c2-c2ccoc2CC3)cc1)N1CCCc2ccccc21	0.7	0.454
O=C(CCn1c(=O)oc2ccccc21)NCCCN1CCCC1=O	3.6	0.815
CCOC(=O)N1CCC(NC(=O)c2nn(-c3ccc(OC)c(Cl)c3)c(=O)c3c2c2ccccc2n3C)CC1	1.0	2.15
Cn1c(=O)cc(OCCCC(=O)NCc2ccccn2)c2ccccc21	0.9	-1.09
CCc1nc2c(N(C)S(=O)(=O)c3ccc(C)cc3)nc3ccccc3n2n1	1.9	x
CCNc1cc(N2CCOCC2)c2noc3c2c1C(=O)c1ccccc1-3	-25.0	3.76
NC1=NS(=O)(=O)c2ccccc21	-1.4	-0.351
COc1ccc(CN2C(=O)C(C)Oc3ccccc32)cc1 (stereo unspecified)	-2.4	-0.128
O=c1sc2ccccc2c2nc[nH]c12	0.8	0.418
CCCCC(=O)c1ccc(OC(C)C)cc1	2.1	0.213
O=C(NCC1CCCCC1)c1cn(-c2ccccc2)nc1-c1cccs1	1.4	x
COc1cccc(N=Nc2c(N)[nH]n(-c3ccccc3)c2=O)c1	5.8	0.214
CCN(CC)C(=O)CCc1nc(CN2CCN(S(=O)(=O)c3ccc(Br)cc3)CC2)no1	-0.4	x
O=c1c2ccccc2cnn1CCc1nc2c3ccccc3ncn2n1	1.9	-1.46
Cc1nn(Cc2ccccc2)c(Cl)c1/C=N/NC(=O)c1cccnc1	-5.6	x
Cc1onc(NC(=O)NC(=O)c2ccccc2F)c1Br	1.0	x
CN(C)C(=O)Cn1c(=O)n(C)c2ccccc21	0.1	-0.338
CCN1CCN(C(=O)CCNC(=O)c2cc(OC)c(OC)c(OC)c2)CC1	1.4	0.71
c1ccc(-n2ncc3c(N4CCC5(CC4)OCCO5)ncnc32)cc1	1.6	-1.22
COC(=O)c1scc2c(Oc3ccccc3C(F)(F)F)cc(C(F)(F)F)nc12	0.3	x
Cc1nn(C(=O)c2ccccc2)c(C)c1CN1C(=O)c2ccccc2C1=O	-1.1	1.33
CCOc1ccc(-c2nc(-c3cc(C)n(CCOC)c3C)cs2)cc1	-1.7	x
CN(C)S(=O)(=O)c1cccc(CN2C(=O)NC3(CCCCCC3)C2=O)c1	1.4	x
CC(=O)Nc1cccc(-n2nnc(SCc3cc(Cl)cc4c3OCOC4)n2)c1	-0.3	x
C=CCN(Cc1ccc(OC)c(OC)c1)C(=O)NC1CCCCC1	0.3	-0.083
CC(C)n1ncc2c1N=C(c1cccs1)N(C)C2c1ccccc1 (stereo unspecified)	2.3	x
COc1ccc(-n2c(CCC(=O)OCC(=O)N3CCCCC3C)nc3ccccc3c2=O)c(OC)c1 (stereo unspecified)	-2.1	x
O=C(COC(=O)C1CC=CCC1C(=O)OCC(=O)c1ccc(Cl)cc1)c1ccc(Cl)cc1 (stereo unspecified)	0.3	x
Cn1nc(OCC(N)=O)ccc1=O	-0.9	-0.339
Cn1c(=O)c2c(O)c(C=NCc3cccnc3)c(=O)n(C)c2n(C)c1=O	0.1	-0.332
COC(=O)C1=C(C)NC(C)=C(C(=O)OC)C1C(=O)OCc1nc2ccccc2c(=O)n1CC#N	-1.8	x
O=C(O)c1cc(S(=O)(=O)N2CCCC2)ccc1O	1.6	-0.533
Cc1cc(OCC#N)nc(N)n1	2.6	-0.573
CC(=O)NC(C(=O)N1CCN(S(=O)(=O)c2ccc(C)cc2)CC1)C(C)C (stereo unspecified)	1.7	x
N#Cc1cnc(Nc2ccccc2)nc1	x	-0.594
